Bioassay records from PubChem.
UUG fidelity = yeast start codon fidelity modulation; S. cerevisiae UUG-firefly luciferase reporter, luminescence/redox ratio; activity score, % at 18.7 µM; 350,000 tested, 0.13% active; AID 602363;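 active = replicate mean at a twofold rise or more, about +100% in these data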;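 also: firefly luciferase made from a UUG start codon reports start codon fidelity; reporter light over untreated wells divided by growth signal over untreated wells; some hits fall short of that in this replicate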
HIV Env fusion = blocks HIV Env-driven cell-cell fusion. HeLa-JRFL Env/CEM21 cell fusion, luciferase. inhibition, % at 12.3 µM. 360,000 tested, 1.1% active;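 active = mean replicate inhibition score of at least 50 and every replicate individually at or above 50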;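 also: 0% = plate neutral controls and 100% = maraviroc near 300 nM; one replicate is shown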
MT1-MMP act inh = MT1-MMP (human) activation inhibition; P50281; HT1080 RFP-PRO-GFP cells, GFP/RFP ratio fluorescence, overnight; percent of plate control window, DMSO zero; GFP/RFP ratio change, % at 20 µM; 360,000 tested, 0.061% active; AID 651647;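 active = GFP/RFP ratio change of at least 30% with cell ATP level not reduced by more than half and red fluorescence within 50% of control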; also: strong numbers were not always called active
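Test system: HT1080 cells expressing an RFP-PRO-GFP fluorescent reporter construct / Compound dosing: single-point 20 µM compound, 1% DMSO / Schedule: cells overnight before dosing, compound overnight, 37 °C, 5% CO2 / Evaluation: GFP/RFP fluorescence ratio / Control set: DMSO and RFP-L50D-GFP cell wells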
CSC inhib = cancer stem cell inhibition. cancer stem cell-like cells viability, luminescence. inhibition, % at 7.5 µM. 300,000 tested, 1.1% active;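 active = mean at 75% or more and at least half the replicates too; tested in HMLE shEcad cells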;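 also: 0% = median of negative and 100% = median of positive control wells; the first replicate is given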
eIF4H inh = inhibitors of RNA binding by human eIF4H; eIF4H fluorescence polarization binding assay; inhibition, % at 35 µM; 290,000 tested, 0.94% active; AID 2012;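 active = 50% or more with normal probe brightness, or confirmed in later tests; about a fifth of its hits are not listed in these tables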;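 also: calls also rest on retests at 20 µM and on dose response follow-up; 0% = protein and probe with vehicle and 100% = probe without protein; strong numbers were not always called active; many hits fall short of the cut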
Rce1 inhib = yeast Ras-converting enzyme inhibition | yeast membranes, quenched prenylated peptide cleavage fluorescence | calls only | 290,000 tested, 0.27% active | AID 2563;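 active = fall in fluorescence gain of 50% or more versus controls, with final raw signal at or below 3038400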;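 also: plate controls were neutral control wells for no effect and wells lacking membranes for full effect; tested at 10 µM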
Target sequence (Q03530 whole entry, looked up): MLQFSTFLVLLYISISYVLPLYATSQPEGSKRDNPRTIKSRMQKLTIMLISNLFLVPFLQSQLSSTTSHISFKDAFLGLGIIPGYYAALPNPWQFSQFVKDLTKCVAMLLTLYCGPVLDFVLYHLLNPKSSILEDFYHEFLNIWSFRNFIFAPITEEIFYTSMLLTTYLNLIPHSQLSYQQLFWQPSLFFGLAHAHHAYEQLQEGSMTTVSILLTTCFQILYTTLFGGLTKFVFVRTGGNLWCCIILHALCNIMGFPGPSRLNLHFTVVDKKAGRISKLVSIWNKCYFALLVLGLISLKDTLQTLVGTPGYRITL
PABP FP inh = PABP-poly(A) binding inhibition | P11940 | PABP-poly(A) RNA binding, fluorescence polarization | inhibition, % at 35 µM | 290,000 tested, 1% active | AID 2014;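 active = 50% or more with normal probe brightness, or confirmed in later tests; about a fifth of its hits are not listed in these tables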;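 also: calls also rest on retests at 20 µM and on dose response follow-up; controls were probe without protein and protein plus probe with vehicle; some compounds called inactive have numbers as strong as hits; many hits fall short of the cut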
eIF4H inh retest = further read-out of eIF4H inh, marked with its call; inhibition, %; compound at 20 µM; confirmation average;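 mean of two retest wells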
PABP FP inh retest = recorded beside PABP FP inh, whose call it bears; inhibition, %; compound at 20 µM; confirmation repeats;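 mean of two retest wells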
MT1-MMP act inh RFP = second read-out of MT1-MMP act inh, no call of its own (marks repeat the call); RFP signal change, %; measured here: RFP expression control read;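 0 = vehicle wells; hits needed this value within 50% of zero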
The depositor's hits bear a star; i = inactive; nt = no result given; [ ] = remark or other dose.

A first look:
SMILES	UUG fidelity	HIV Env fusion	MT1-MMP act inh	MT1-MMP act inh RFP	CSC inhib	eIF4H inh	Rce1 inhib	PABP FP inh	others
COc1ccc(OC)c(NC(=O)c2ccc(OCC(=O)N3CCOCC3)c(OC)c2)c1	-18	nt	2	2	2	nt	i	nt
C=CCNc1cc(C)oc(=O)c1C(=O)CC	nt	-12	-1	3	-4	0	i	0

All compounds of this part, from the start:
SMILES	UUG fidelity	HIV Env fusion	MT1-MMP act inh	MT1-MMP act inh RFP	CSC inhib	eIF4H inh	Rce1 inhib	PABP FP inh	others
COc1ccc(OC)c(NC(=O)c2ccc(OCC(=O)N3CCOCC3)c(OC)c2)c1	-18	nt	2	2	2	nt	i	nt
C=CCNc1cc(C)oc(=O)c1C(=O)CC	nt	-12	-1	3	-4	0	i	0
CC(C)CCNC(=O)c1ccccc1NC(=O)C1=CSCCO1	-10	-1	1	0	1	2	i	-3
CS(=O)(=O)N1CCC(Oc2ccccc2C(=O)N2CCC[C@H]2CO)CC1	-9	7	-4	0	-16	-15	i	-4
COc1ccc(C2CC(=O)NC3=C2C(=O)CCC3)cc1Cl (stereo unspecified)	-16	nt	5	2	-8	4	i	-5
Cc1ccc(C)c(OCC(=O)NC2CCCCCC2)c1	-6	-12	-1	-6	-6	4	nt	-7
Nc1ccc(C(=O)OCCCc2nc3ccccc3[nH]2)cc1	-3	nt	5	4	-7	2	i	-6
CCOC(=O)N1CCN(c2ccc(Cl)c(Cl)c2)CC1	-7	nt	-4	-6	5	5	i	15
c1ccc(CN2CCOCCOCCOCCOCC2)cc1	nt	5	-1	-1	-2	-2	i	-2
CC[C@](C)(O)c1cc2ccccc2c(=O)o1	-4	2	2	-1	-3	nt	nt	nt
O=C(N/N=C\c1ccncc1)c1ccc(Br)s1	-16	0	-5	1	-2	0	i	-4
C=CCSC1=N/C(=C\C=C\c2ccco2)C(=O)S1	-10	nt	-6	4	4	96*	i	76*
O=C(CCn1cncn1)N1CCCC(N2CCN(c3cccc(C(F)(F)F)c3)CC2)C1 (stereo unspecified)	-17	3	0	5	-4	4	i	3
COc1cccc(CNc2ccccc2O)c1OCc1ccccc1F	-13	-48	6	5	-6	37	i	1
COc1ccccc1NC(=O)C(C)OC(=O)C(C)SCC(=O)Nc1ccc(C)cc1 (stereo unspecified)	20	-15	-2	1	nt	nt	nt	nt
Cc1ccc(NC(=S)N2CCCC2)cc1	-23	12	-1	-3	14	-5	i	0
O=C(CSc1ncnc2ccccc12)c1ccco1	nt	nt	-8	-6	-3	44	i	2
O=C(c1ccc(C(F)(F)F)n(Cc2ccc(Cl)cc2)c1=O)N1CCOCC1	20	15	-3	-4	-8	-9	i	1
Cc1cccc(CNC(=O)C2CCC(=O)N(C3CCCC3)C2)c1 (stereo unspecified)	-11	15	0	-1	nt	4	i	-1
Cc1cccc(NC(=O)/C=C/c2ccc3c(c2)OCO3)n1	-36	-156	0	-6	nt	-2	i	4
CCCNC(=O)c1ccccc1NC(=O)c1ccc2c(c1)NC(=O)C(C)S2 (stereo unspecified)	-7	27	0	-6	45	41	i	10
COc1cc(/C=C2\SC(=S)N(NC(=O)c3ccc(O)cc3)C2=O)ccc1O	nt	-11	5	47	1	0	i	-17
C[C@H](CO)N1C[C@H](C)[C@@H](CN(C)C(=O)NC2CCCCC2)Oc2ccc(NC(=O)C3CCCCC3)cc2C1=O	3	7[16.7 µM]	1	0	5	nt	nt	nt
Cc1ccc(C2N(c3ccc(Cl)c(Cl)c3)C(=O)C3CCCN32)o1 (stereo unspecified)	nt	-57	-4	1	2	-7	nt	-5
CCCSC1=N/C(=C/c2ccsc2)C(=O)N1c1ccccc1	nt	nt	-4	-1	28	-3	i	8

Later entries.
SMILES	UUG fidelity	HIV Env fusion	MT1-MMP act inh	MT1-MMP act inh RFP	CSC inhib	eIF4H inh	Rce1 inhib	PABP FP inh	others
CCCCCCn1c(NCC)nc2c1c(=O)[nH]c(=O)n2C	-8	nt	5	4	-1	8	i	5
COc1ccccc1C(=O)N(CCC1CCCN1C)c1nc2ccccc2s1 (stereo unspecified)	nt	-97	-2	0	9	4	i	1
CC(=O)Cn1ncc(N2CCOCC2)cc1=O	nt	-2	0	2	-2	2	i	-4
CCOc1ccc(S(=O)(=O)Nc2ccc(C(=O)NCCCN3CCOCC3)cc2)cc1	nt	-65	-4	-2	-9	nt	i	nt
COc1cccc(C(=O)N2CCN(C(=O)COc3ccc4ccccc4c3)CC2)c1	6	-7	8	-5	-13	-3	i	-2
Cc1oc(=O)c(NC(=O)c2ccc(Cl)cc2)cc1C(=O)c1ccccc1	-26	-214	-1	-1	-7	3	i	1
CC(=O)c1ccc(OCC(=O)NCC2(N3CCCCC3)CCCCC2)cc1	nt	-8	5	1	1	-10	nt	10
COc1ccccc1CNS(=O)(=O)c1ccc2c(c1)CC(=O)N2C	5	2	-2	0	-1	-14	i	2
Cc1ccccc1S(=O)(=O)Nc1nc2ccccc2nc1NCCO	1	nt	1	4	0	3	i	22
CC1(C)NC(=O)N(CC(O)COc2ccc(-c3ccc(C#N)cc3)cc2)C1=O (stereo unspecified)	33	31	-9	-11	-4	7	i	4
CC(=O)Nc1c(C)ccc(CNC(=O)COc2ccc(F)cc2)c1C	nt	-14	4	6	-9	7	i	-13
O=C(Nc1ccc(N2CCN(C(=O)c3cccs3)CC2)cc1)c1ccco1	5	7	-3	-3	-2	2	i	2
Cc1cc(=O)oc2cc(OCC(=O)NCCN3CCOCC3)ccc12	nt	-4	-4	-3	1	-4	i	-3
Cc1cccc(NC(=O)CN2C(=O)S/C(=C\c3ccc(-c4cccc(C(=O)O)c4C)o3)C2=O)c1	nt	-31	nt	nt	-8	92*	i	-12	eIF4H inh retest=83*;PABP FP inh retest=10
O=C(COC(=O)c1ccc(O)cc1)NC(c1ccccc1)c1ccccc1	-5	-20	-1	-1	-19	nt	nt	nt
CN(CC(=O)Nc1ccc(F)cc1)C(=O)CN1C(=O)NC2(CCCC2)C1=O	-4	-3	14	2	nt	nt	nt	nt
CC1Cc2ccccc2N1C(=O)c1cc2sccc2n1Cc1ccc(F)cc1 (stereo unspecified)	-31	nt	-26	-14	40	1	i	-5
CCc1ccc(N2C(=O)C3C4CCC(C4=C(C)C)C3C2=O)cc1 (stereo unspecified)	-11	-8	-2	-1	-3	0	i	-3
CS(=O)(=O)N(CC(=O)Nc1ccc(CC#N)cc1)c1ccc(C23CC4CC(CC(C4)C2)C3)cc1	-9	nt	-14	-17	38	-7	i	4
COc1ccc(CNC(=O)[C@@H]2CC=C[C@@H]3CCN(C4CCCCC4)C(=O)[C@@H]32)cc1	-5	8	0	-1	-1	nt	i	nt
CCC1=NN(C(=O)Cc2ccc([N+](=O)[O-])cc2)C(O)(C(F)(F)F)C1 (stereo unspecified)	nt	5	5	3	2	1	i	-13
CCOC1=C/C(=C/c2c(N)n3nc(CC(=O)N4CCCC4)sc3nc2=O)C=CC1=O	-17	7	-20	33	9	10	i	4
CCOCCn1c(SC)nc2c1c(=O)[nH]c(=O)n2C	9	-44	5	4	12	-7	i	3
CCCCNC(=O)c1onc(CSc2cc(C)ccc2C)c1C(=O)O	-17	-13	-1	4	-16	2	i	3
Cc1cc(S(=O)(=O)N2CCOCC2)ccc1OCC(=O)N1CCC(C(N)=O)CC1	6	-7	0	1	-28	9	i	4

Continued:
SMILES	UUG fidelity	HIV Env fusion	MT1-MMP act inh	MT1-MMP act inh RFP	CSC inhib	eIF4H inh	Rce1 inhib	PABP FP inh	others
Cc1cc(Cl)c(S(=O)(=O)N2CCSCC2)cc1OCC(N)=O	-6	nt	4	1	-6	-10	i	-2
c1ccc(CNC23CC4CC(CC(C4)C2)C3)nc1	nt	-13	-1	1	3	-4	i	3
C1CC(=NN=C2CCSCC2)CCS1	-22	16	2	2	nt	nt	nt	nt
O=C(COC(=O)Cc1ccsc1)NCC1CCCCC1	-10	-16	-3	2	7	-4	i	1
CC(C)C(=O)Nc1ccc(NC(=O)c2cccnc2)cn1	10	nt	2	6	6	-2	i	-7
CCOC(=O)c1c(C)[nH]c(C)c1C(=O)COC(=O)C1CC(=O)N(CCc2ccccc2)C1 (stereo unspecified)	1	-3	1	2	-5	nt	nt	nt
COc1ccc(NC(=O)N2CCCCCC2)c(OC)c1	-1	5	4	6	0	-4	i	-4
CCN1CCN(C(=O)c2cc(=O)c3cc(C)ccc3o2)CC1	-3	-4	3	2	-6	-6	i	3
CCOC(=O)C1=C(C)N=C2SC(C(=O)OC)=CC(=O)N2C1c1ccc(F)cc1 (stereo unspecified)	-12	nt	-2	-5	nt	-3	i	-2
COc1ccc(C[C@H]2CN3C(=NC[C@@H]3C(C)C)N2C[C@H](C)NC(=O)c2ccc(C)c(Br)c2)cc1	0	-131	2	-4	44	-10	i	6
C/C=N/N(c1ccccc1)c1ccccc1	-9	4	0	4	nt	-3	i	-10
O=C(NCCc1ccccc1)c1cnc2sccn2c1=O	-26	-43	1	2	-8	5	i	5
CCOc1ccc(CNS(=O)(=O)c2ccc(-c3ccc(=O)[nH]n3)o2)cc1OC	-17	8	2	5	-8	8	i	2
Cc1cc(C(=O)NC2=NCCS2)c2ccccc2n1	nt	6	-5	-1	9	-7	i	-4
COc1ccc(C2=CCCCCC2)cc1OC	-4	-31	5	2	nt	nt	nt	nt
S=C(NCc1ccco1)N1CCC(c2nc3ccccc3o2)CC1	nt	17	1	2	2	8	i	-9
Cc1cccc(-c2c(NC(=O)c3ccco3)oc3ccc(Cl)cc3c2=O)c1	-22	14	-3	1	9	-11	i	-6
CCc1nc(SCc2nc3ccccc3[nH]2)c2oc3ccccc3c2n1	-21	nt	-10	-13	7	-6	i	2
COCCN(C(=O)c1ccco1)c1nc(-c2ccccc2)cs1	-5	-2	2	-1	-1	-7	i	-7
CC(=O)c1ccc(NC(=O)COC(=O)C2CC3C=CC2C3)cc1 (stereo unspecified)	-12	nt	-1	4	-24	nt	nt	nt
Nn1c(SCC(=O)Nc2cccc(F)c2)nnc1C1CCCCC1	-12	-10	1	4	-12	-4	i	-5
Cc1cc(C)c(C(=O)CSc2n[nH]c(-c3ccncc3)n2)c(C)c1	nt	-4	2	-1	7	-1	i	4
COc1cnc(-c2ccccn2)nc1Oc1ccccc1Cl	-9	-34	0	5	-14	-5	i	-2
CC(C)OC(=O)C(C)Nc1n[nH]c(=S)[nH]c1=O (stereo unspecified)	nt	12	-1	4	nt	1	i	1
CCc1nc2ccc(C(=O)Nc3cccc(NS(C)(=O)=O)c3)cn2c1N(CC)Cc1cccc(Br)c1	-4	-11	1	-9	nt	nt	nt	nt

The list continues:
SMILES	UUG fidelity	HIV Env fusion	MT1-MMP act inh	MT1-MMP act inh RFP	CSC inhib	eIF4H inh	Rce1 inhib	PABP FP inh	others
CCOc1ccc(NC(=S)N2CCN(S(=O)(=O)c3ccc(OC)cc3)CC2)cc1	-4	0	0	-4	-11	1	i	4
Cc1cc(C)n(-c2nc(O)cc(=O)[nH]2)n1	0	nt	3	4	nt	1	i	9
CCOc1ccc(NC(=O)CN(c2cc(C)cc(C)c2)S(=O)(=O)c2c(C)noc2C)cc1	-15	16	-7	-7	-1	0	i	-15
COc1ccc(NC(=O)c2ccco2)cc1S(=O)(=O)N1CCOCC1	-14	4	0	4	-2	-2	i	9
Cc1ccc([N+](=O)[O-])cc1S(=O)(=O)NCC1COc2ccccc2O1 (stereo unspecified)	-17	6	-5	-3	5	-13	i	-5
COc1ccc(C(CC(=O)O)NC(=O)COc2ccccc2)cc1 (stereo unspecified)	-10	-31	0	3	-4	-1	i	-8
COc1cc(CNc2ncnc3c2ncn3[C@H]2CN(Cc3cccc4ccccc34)C[C@@H](CO)O2)cc(OC)c1OC	-4	-24	-6	-9	nt	nt	nt	nt
N#Cc1c(N2CCCCC2)nc(N)c2c(N)nc3c(c12)CC(CCl)O3 (stereo unspecified)	nt	16	-3	0	8	-1	i	8
